Ecoli rRNA inh – reduced GFP signal of wild-type E. coli, primary screen, bacterial rRNA inhibitor project, GFP/RFP fluorescence, OD600, single point | E. coli WT GFP vs humanized-ribosome RFP mutants, 24 h; hits give low values; DMSO median 0, no signal -100 | GFP signal change (wild-type ribosome), % (concentration not given with the values) | actives 1.6% (n = 350,000) | AID 720706, 2013;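 active = significant combined selectivity score with lowered wild-type GFP, culture density cut under 30%, mutant RFP and density less affected; inactive = any of these conditions unmet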; also: one replicate is shown; some compounds called inactive have numbers as strong as hits
HNF4A DNA FP – change in binding of human HNF4A to DNA, primary screen, biochemical, fluorescence polarization, FITC-DNA; Hepatocyte nuclear factor 4-alpha (Homo sapiens), P41235; 1 h; activity change, % at 10 µM; actives 0.3% (n = 360,000); in the data active = activity change above about 30%, passing the limit was not always enough;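 also: controls were the assay level and a saturating level of protein; the project sought stronger binding though the title names inhibitors; some compounds called inactive have numbers as strong as hits; positive values seem to mean higher polarization but the record does not say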
Target sequence (P41235 whole entry, looked up): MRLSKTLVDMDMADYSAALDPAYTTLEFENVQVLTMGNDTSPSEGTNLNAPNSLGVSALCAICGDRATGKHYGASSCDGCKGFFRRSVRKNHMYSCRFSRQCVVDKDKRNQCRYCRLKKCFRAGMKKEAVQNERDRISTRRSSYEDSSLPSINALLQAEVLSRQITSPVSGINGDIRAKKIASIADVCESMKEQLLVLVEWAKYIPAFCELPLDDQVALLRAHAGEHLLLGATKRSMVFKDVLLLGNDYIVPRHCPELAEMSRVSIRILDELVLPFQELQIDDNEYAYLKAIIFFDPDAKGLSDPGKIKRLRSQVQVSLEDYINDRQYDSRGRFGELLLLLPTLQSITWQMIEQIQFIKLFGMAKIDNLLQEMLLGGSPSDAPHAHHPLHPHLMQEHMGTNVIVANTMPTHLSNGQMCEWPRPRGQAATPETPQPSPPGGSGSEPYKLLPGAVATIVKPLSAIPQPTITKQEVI
E coli growth – E. coli growth inhibition, primary screen, OD600; actives 0.21% (n = 330,000); Escherichia coli growth, 23 h; hits give low values; OD600 absorbance (test concentration not listed);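 active = OD600 absorbance below the run mean of sample wells minus 3.6 SD, in any replicate, cut at about 0.56 in these data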;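 also: stock transfer was 300 nL into about 60 µL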
Beta2AR agonist – beta2AR agonists driving receptor internalization, primary screen, cell-based, FAP fluorogen, flow cytometry; Am2.2-beta2AR cells; reference of the scale not given here; AID 504454, 2011; actives 0.43% (n = 340,000); response, % (test concentration not listed);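 active = response above a set limit, near 3 SD of response in nonfluorescent compounds, cut at about 42% in these data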;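 also: stock transfer was 100 nL into about 11 µL; a reference agonist was the positive control; negative values mostly stem from fluorescent compounds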
ALR H2O2 inh – inhibitors of human ALR sulfhydryl oxidase, primary screen, biochemical, H2O2 detection, HRP-luminol luminescence, single point; FAD-linked sulfhydryl oxidase ALR (Homo sapiens), P55789; purified ALR, DTT oxidation; inhibition, % (no concentration beside the values); actives 3.8% (n = 290,000);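 active = mean and each replicate at 75% or more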;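 also: stock transfer was 7.5 nL into about 7.5 µL; 0% = neutral wells and 100% = wells with inactivated enzyme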
Target sequence (P55789 whole entry, looked up): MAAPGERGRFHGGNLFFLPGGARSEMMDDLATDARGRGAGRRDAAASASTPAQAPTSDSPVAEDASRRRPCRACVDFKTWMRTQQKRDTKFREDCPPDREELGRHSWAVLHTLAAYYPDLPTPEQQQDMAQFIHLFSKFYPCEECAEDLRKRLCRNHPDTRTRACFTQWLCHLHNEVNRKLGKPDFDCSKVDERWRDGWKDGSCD
UCH37 DUB inh – inhibitors of human UCH37 deubiquitinase, primary screen, biochemical, Ub-AMC cleavage, fluorescence | purified proteasome/UCH37 | inhibition, % (test concentration not listed) | actives 0.33% (n = 330,000);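 active = mean of two replicates above 20%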;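 also: 0% = compound-free wells with enzyme and 100% = wells lacking proteasome; stock transfer was 100 nL into about 20 µL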
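Material: Human UCH37 enzyme supplied as purified proteasome complex | Schedule: 30 min preincubation with enzyme, 25 min cleavage at room temperature | Detection: AMC fluorescence 355/460 nm | Measure: % inhibition of Ub-AMC cleavage fluorescence | Controls: Wells without proteasome as full block, compound-free enzyme plus substrate as uninhibited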
FGF22 binding – binders of human FGF22 protein, primary screen, FGF22 synaptogenesis inhibitor project, biophysical, thermal shift, single point; actives 1.5% (n = 340,000); Fibroblast growth factor 22 (Homo sapiens), Q9HCT0; calls only at 9.99 µM; recombinant FGF22 thermal shift, SYPRO orange fluorescence; percent of sucrose octasulfate shift, DMSO zero;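 active = melting point raised past a set limit in the mean and every replicate; three in four hits are not shown here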
Target sequence (Q9HCT0 whole entry, looked up): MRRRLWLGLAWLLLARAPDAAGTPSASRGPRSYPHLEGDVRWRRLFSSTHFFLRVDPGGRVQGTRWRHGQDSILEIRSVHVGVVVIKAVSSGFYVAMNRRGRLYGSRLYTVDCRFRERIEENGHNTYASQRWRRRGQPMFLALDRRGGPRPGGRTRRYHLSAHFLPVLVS
Ecoli rRNA inh OD600 – recorded beside Ecoli rRNA inh, whose call it bears; OD600 change, %; measured here: OD600 growth;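 optical density of the mix in the first replicate; 0 = DMSO median and -100 = no signal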
Ecoli rRNA inh RFP – also measured in Ecoli rRNA inh; calls as there; RFP signal change, %; measured here: RFP humanized mutant strains;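 first replicate; 0 = DMSO median and -100 = no signal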
Numbers without * were called inactive; i = inactive; . = no result given. A portion of the library; the hit share may differ from the screen's.

No.	compound	Ecoli rRNA inh	Ecoli rRNA inh OD600	Ecoli rRNA inh RFP	HNF4A DNA FP	E coli growth	Beta2AR agonist	ALR H2O2 inh	UCH37 DUB inh	FGF22 binding
1	CCc1ccc(/C=N\n2cnnc2)cc1	7	8	0.0	2.5	.	-7	-11	.	i
2	COc1ccc(CCNC(=O)Cn2cccc2C(=O)c2ccccc2)c(OC)c1	-11	-2	1.1	-0.8	0.68	-5	3	2.5	i
3	CCOc1ccc(CCN2C(=O)C(=O)N([C@@H](CC(C)C)CN3CCC[C@@H]3CN3C(=O)C(=O)NC[C@@H]3CC(C)C)C[C@@H]2Cc2ccccc2)cc1	17	9	5.4	1.5	.	.	.	.	i
4	COc1ccc(N(CC(=O)NCCSCc2cccc(Cl)c2)S(C)(=O)=O)cc1	-26	-25	5.7	1.8	0.68	18	-19	4.3	i
5	O=S(=O)(NCc1ccc2c(c1)OCO2)c1cccc(F)c1	-2	2	-3.7	-1.6	0.62	0	-1	1.8	i
6	COc1cccc2c1OCC(C(=O)OCc1cccnc1)=C2	-15	-16	3.7	-5.5	0.68	15	2	1.6	i
7	Cc1csc(=O)n1CCC(=O)OCC(=O)NCc1ccc(Cl)cc1Cl	-6	-8	-0.7	-1.3	0.63	2	.	1.0	i
8	Cc1cccc(OCC(=O)N(Cc2nnc(-c3ccccc3Cl)o2)C2CC2)c1	.	.	.	1.4	0.66	-1	.	-0.8	i
9	CCOC(=O)C1=C(C)Nc2ncnn2C1/C=C/c1ccccc1 (configuration not stated)	.	.	.	0.6	0.69	-6	-5	3.2	.
10	CC(=O)c1cnc2sccn2c1=O	20	19	6.8	2.8	0.67	-4	-13	-0.3	i
11	O=C1OC2(CCCCC2)OC(=O)C1=CNc1ccc2c(c1)OCO2	.	.	.	2.1	0.7	-2	-19	-16	.
12	Cc1cc(/C=N/NS(=O)(=O)c2ccc(F)c(Cl)c2)no1	25	14	4.1	-0.1	.	-1	-2	.	i
13	CCCC(=O)Nc1ccc2oc(-c3cncc(Br)c3)nc2c1	7	6	2.3	-0.4	0.71	-11	.	-49	i
14	CC(C)Cc1nnc(NC(=O)CCC(=O)NC2CCCCC2)s1	7	19	-0.5	4.9	0.65	-3	-2	3.9	i
15	COc1ccc2cc(CCNS(=O)(=O)c3ccc(NC(C)=O)cc3)c(=O)[nH]c2c1	5	5	0.6	-2.7	0.67	7	.	-21	.
16	O=C1C2C3C=CC(C2C(=O)N1c1ccccc1O)C1C2C(=O)N(c4ccccc4O)C(=O)C2C31 (configuration not stated)	4	0	1.7	-1.4	0.68	6	29	2.8	.
17	COc1cccc(-c2csc(N3CCN(C(=O)Nc4ccccc4Cl)CC3)n2)c1	-19	-18	-0.9	-1.6	0.67	1	-4	0.5	i
18	O=C(CSCc1ccccc1)Nc1nccs1	.	.	.	1.0	0.7	-1	-9	-0.5	.
19	CCCNC(=O)C1(C)CCN(Cc2csc3ccccc23)C1 (configuration not stated)	1	-3	0.8	0.6	.	.	.	.	i
20	Cc1ccc(NC(=O)N2CCc3ccccc3C2)cc1	.	.	.	2.6	0.63	-9	4	3.2	.
21	COc1ccc([N+](=O)[O-])cc1NC(=O)C(C)N1CCN(C(=O)c2ccco2)CC1 (configuration not stated)	12	10	-5.2	0.6	0.69	4	5	1.7	i
22	O=C(CCNC(=O)c1ccc([N+](=O)[O-])cc1)Nc1cc(C(F)(F)F)ccc1N1CCOCC1	-19	-17	0.5	0.4	.	.	.	.	i
23	CC(O)Cn1c(N2CCCC2)nc2c1c(=O)[nH]c(=O)n2C (configuration not stated)	-1	9	2.3	-1.1	0.62	-4	13	0.8	i
24	COc1cc(S(=O)(=O)N2CCN(C(=O)c3ccccc3F)CC2)c(OC)cc1NC(C)=O	.	.	.	2.7	0.74	-4	.	-0.1	.
25	COc1ccc(C(=O)NCCc2ccc(Cl)cc2)cc1S(=O)(=O)N1CCCCC1C (configuration not stated)	.	.	.	0.3	.	-1	0	.	i

Next part, starting with the last 2 of the part before.
No.	compound	Ecoli rRNA inh	Ecoli rRNA inh OD600	Ecoli rRNA inh RFP	HNF4A DNA FP	E coli growth	Beta2AR agonist	ALR H2O2 inh	UCH37 DUB inh	FGF22 binding
24	COc1cc(S(=O)(=O)N2CCN(C(=O)c3ccccc3F)CC2)c(OC)cc1NC(C)=O	.	.	.	2.7	0.74	-4	.	-0.1	.
25	COc1ccc(C(=O)NCCc2ccc(Cl)cc2)cc1S(=O)(=O)N1CCCCC1C (configuration not stated)	.	.	.	0.3	.	-1	0	.	i
26	CC(C)C(NC(=O)c1ccccc1NC(=O)c1ccco1)C(=O)O (configuration not stated)	12	5	5.0	0.0	0.7	4	-8	2.8	.
27	O=C(c1cc2ccccc2cc1O)N1CCN(c2ccc([N+](=O)[O-])cc2)CC1	-20	-18	-1.1	1.0	0.69	3	-52	6.1	i
28	Nc1nnc(SCC(=O)NCCOc2ccccc2)s1	.	.	.	-1.1	0.72	0	-3	3.0	.
29	CC(=O)N1CCSc2ccc(S(=O)(=O)Nc3ccc(C)cc3)cc21	0	-8	-5.7	-0.4	0.69	8	-4	2.5	i
30	CCOC(=O)C1CCN(C(=O)c2cccc(S(=O)(=O)N3CCc4ccccc43)c2)CC1	-6	-12	3.3	3.0	0.69	7	-10	-2.7	i
31	CC1CCCC(C)N1NC(=O)c1cccc(S(=O)(=O)N2CCc3ccccc32)c1 (configuration not stated)	8	1	3.2	-5.3	0.68	7	1	4.2	i
32	O=C(c1ccc2c(c1)OCO2)N1CCCC1	.	.	.	2.5	0.66	-2	-7	6.5	.
33	CCOC(=O)c1c(-c2ccccc2)cn2c(C)cc(C)nc12	-11	-6	-1.1	-2.0	0.64	-7	10	-449	i
34	c1ccc(CN(Cc2ccccc2)c2ncnc3c2nnn3Cc2ccccc2)cc1	.	.	.	-1.0	0.72	-9	3	6.3	i
35	Cc1[nH]nc2c1C(c1c[nH]c3ccccc13)C(C#N)=C(N)O2 (configuration not stated)	-4	0	0.5	-4.8	.	-3	10	.	i
36	O=C(OC[C@@H]1CCCN2CCCC[C@H]12)c1cc2ccccc2oc1=O	.	.	.	0.3	.	-14	8	.	.
37	CC1(C)CC(=O)c2c(-c3cccs3)n[nH]c2C1	.	.	.	2.3	0.71	0	26	-21	.
38	COc1ccc(NC(=O)c2sc3nc(N4CCOCC4)c4c(c3c2N)CC(C)(C)OC4)c(OC)c1	11	15	-1.5	0.4	0.7	4	-2	-201	i
39	O=C(c1ccc([N+](=O)[O-])o1)N1CCN(c2nc3c(F)cc(F)cc3s2)CC1	7	6	1.7	3.6	0.64	38	-355	6.8	i
40	CCOC(=O)c1c(C)[nH]c(C(=O)OCc2ccc([N+](=O)[O-])cc2)c1C	3	8	-2.8	2.1	0.7	1	-1	1.4	i
41	CCOc1ncccc1C(=O)N1CCN(c2cccc(C)c2C)CC1	-7	-5	-2.1	-0.1	0.7	16	.	-2.8	i
42	CCCCc1ccc(NC(=S)NCCc2ccc(F)cc2)cc1	-39	-63	4.4	0.0	0.69	-4	0	1.3	.
43	O=C(NCCNC(=O)c1ccc(-c2ccc(Cl)c(Cl)c2)o1)c1cnccn1	-48	-65	2.9	2.5	0.66	10	2	1.9	i
44	COc1ccc(S(=O)(=O)NC(CC(=O)NCc2ccco2)C(C)C)cc1 (configuration not stated)	.	.	.	2.8	0.72	-3	.	-0.4	.
45	CSc1ccc(CN2CCC(C(=O)NCc3ccc(C)cc3)CC2)cc1	13	18	1.6	7.4	0.66	2	-2	-0.5	i
46	Cc1ccc(NS(=O)(=O)c2cc(C(=O)N3CCN(C)CC3)ccc2C)cc1	.	.	.	0.3	0.68	8	2	4.4	.
47	CCOC(=O)C1CCN(C(=O)CNS(=O)(=O)c2cccs2)CC1	.	.	.	-2.4	0.72	2	-17	-0.6	.
48	CC1(CCC#N)N=C(SCCC#N)N(c2ccccc2)C1=O (configuration not stated)	.	.	.	-4.7	0.7	2	-22	2.6	.
49	S=c1[nH]c2cc3c(cc2[nH]1)OCCO3	-1	7	-1.7	0.1	0.7	8	62	3.8	i
50	Cc1c(C)c2cc3c(C)coc3cc2oc1=O	6	10	1.3	-2.0	0.63	1	-5	-28	i

Additional compounds follow:
No.	compound	Ecoli rRNA inh	Ecoli rRNA inh OD600	Ecoli rRNA inh RFP	HNF4A DNA FP	E coli growth	Beta2AR agonist	ALR H2O2 inh	UCH37 DUB inh	FGF22 binding
51	Clc1cc2c(c(Cn3cnc4ccccc43)c1)OCOC2	.	.	.	-1.1	0.7	0	0	2.9	.
52	Cc1cc(C)n(CC(=O)N/N=C/c2ccc3c(c2)OCO3)n1	8	11	-1.9	1.8	.	2	-8	.	i
53	COc1ccc(CN2CCCCC2C(=O)Nc2ccc(OC)c(OCC(C)C)c2)cc1OC (configuration not stated)	.	.	.	-4.4	0.68	-3	-6	2.4	.
54	CCOc1ccc(CCNC(=O)CCc2nnc3ccc(N4CCCCC4)nn23)cc1OCC	-3	-1	2.0	-6.0	0.77	-17	-11	4.2	i
55	CCOC(=O)c1c(C)n(C)c2cc([N+](=O)[O-])c(O)c([N+](=O)[O-])c12	-10	2	-2.3	8.7	0.73	2	-3	11	i
56	COC(=O)C1C(c2ccc(OC)cc2)NC(=O)NC1(O)C(F)(F)Cl (configuration not stated)	18	17	0.0	-0.4	0.71	3	-14	-0.5	i
57	O=C(NCC(=O)N(Cc1cccs1)C(C(=O)NC1CCCC1)c1ccncc1)c1ccco1 (configuration not stated)	-6	-5	-3.9	-1.2	0.77	-11	2	5.4	.
58	CCCCOC(=O)C(C)c1c(C)[nH]c(=S)[nH]c1=O (configuration not stated)	.	.	.	0.8	0.79	1	55	1.7	.
59	O=C1CN(C(=O)CNC(=O)c2ccc(Cl)cc2Cl)CCN1	1	5	-2.1	0.7	0.69	-2	2	4.9	i
60	CCC1(C)COC(c2ccc(OC)c(OC)c2)OC1 (configuration not stated)	14	11	2.0	3.1	0.68	-8	.	2.8	i
